Assay outcomes (PubChem BioAssay)
UCH37 DUB inh: inhibitors of human UCH37 deubiquitinase, primary screen, biochemical, Ub-AMC cleavage, fluorescence; inhibition, % (test concentration not listed); Ubiquitin carboxyl-terminal hydrolase isozyme L5 (Homo sapiens), Q9Y5K5; 330,000 tested, 0.33% active; purified proteasome/UCH37;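 active = mean of two replicates above 20%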;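 note: 0% = compound-free wells with enzyme and 100% = wells lacking proteasome; stock transfer was 100 nL into about 20 µL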
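System: Proteasome-associated human UCH37 deubiquitinase; Input: 0.15 nM proteasome in added enzyme buffer; Also added: Ub-AMC substrate from 1 µM stock; Incubation: 30 min compound-proteasome preincubation then 25 min substrate reaction, room temperature; Detection: fluorescence, ex 355 nm, em 460 nm; Read-out: % inhibition of Ub-AMC cleavage fluorescence; Benchmarks: no-proteasome and no-compound wells.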
ALR inh: inhibitors of human ALR sulfhydryl oxidase, primary screen, biochemical, H2O2 detection, HRP-luminol luminescence, single point | inhibition, % (no concentration beside the values) | purified ALR, DTT oxidation | AID 485317, 2010 | 290,000 tested, 3.8% active | FAD-linked sulfhydryl oxidase ALR (Homo sapiens), P55789;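 active = mean and each replicate at 75% or more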;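 note: stock transfer was 7.5 nL into about 7.5 µL; 0% = neutral wells and 100% = wells with inactivated enzyme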
Target sequence (P55789 whole entry, looked up): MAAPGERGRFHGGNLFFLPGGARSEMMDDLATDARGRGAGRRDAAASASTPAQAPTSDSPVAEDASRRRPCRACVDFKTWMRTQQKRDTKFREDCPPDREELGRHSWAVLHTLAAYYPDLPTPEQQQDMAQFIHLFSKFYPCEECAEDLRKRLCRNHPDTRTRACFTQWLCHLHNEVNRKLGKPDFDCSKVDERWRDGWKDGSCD
E coli growth: E. coli growth inhibition, primary screen, OD600 | OD600 absorbance (concentration not given with the values) | AID 1053175, 2014 | Escherichia coli growth, 23 h; active compounds read low | 330,000 tested, 0.21% active;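 active = OD600 absorbance below the run mean of sample wells minus 3.6 SD, in any replicate, cut at about 0.56 in these data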;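 note: stock transfer was 300 nL into about 60 µL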
B2AR ag: beta2AR agonists driving receptor internalization, primary screen, cell-based, FAP fluorogen, flow cytometry; Am2.2-beta2AR cells; reference of the scale not given here; 340,000 tested, 0.43% active; response, % (concentration not given with the values); Beta-2 adrenergic receptor (Homo sapiens), P07550;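 active = response above a set limit, near 3 SD of response in nonfluorescent compounds, cut at about 42% in these data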;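 note: stock transfer was 100 nL into about 11 µL; a reference agonist was the positive control; negative values mostly stem from fluorescent compounds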
Target sequence (P07550 whole entry, looked up): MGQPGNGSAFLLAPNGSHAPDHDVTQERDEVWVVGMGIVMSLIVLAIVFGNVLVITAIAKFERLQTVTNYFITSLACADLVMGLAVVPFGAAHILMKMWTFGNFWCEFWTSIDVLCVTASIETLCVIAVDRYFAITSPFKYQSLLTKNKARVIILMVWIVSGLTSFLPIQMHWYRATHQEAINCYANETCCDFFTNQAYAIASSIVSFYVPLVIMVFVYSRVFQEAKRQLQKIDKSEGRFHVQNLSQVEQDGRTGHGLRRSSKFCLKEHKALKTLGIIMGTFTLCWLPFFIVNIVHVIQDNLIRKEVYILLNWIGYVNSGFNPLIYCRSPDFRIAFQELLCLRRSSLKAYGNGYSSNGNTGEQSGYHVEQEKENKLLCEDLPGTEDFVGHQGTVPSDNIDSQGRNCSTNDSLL
HNF4A DNA FP: change in binding of human HNF4A to DNA, primary screen, biochemical, fluorescence polarization, FITC-DNA; Hepatocyte nuclear factor 4-alpha (Homo sapiens), P41235; 1 h; activity change, % at 10 µM; 360,000 tested, 0.3% active; AID 1224865, 2016; in the data active = activity change above about 30%, passing the limit was not always enough;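 note: controls were the assay level and a saturating level of protein; the project sought stronger binding though the title names inhibitors; some compounds called inactive have numbers as strong as hits; positive values seem to mean higher polarization but the record does not say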
FGF22 binding: binders of human FGF22 protein, primary screen, FGF22 synaptogenesis inhibitor project, biophysical, thermal shift, single point; Fibroblast growth factor 22 (Homo sapiens), Q9HCT0; recombinant FGF22 thermal shift, SYPRO orange fluorescence; percent of sucrose octasulfate shift, DMSO zero; calls only at 9.99 µM; 340,000 tested, 1.5% active;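 active = melting point raised past a set limit in the mean and every replicate; three in four hits are not shown here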
Target sequence (Q9HCT0 whole entry, looked up): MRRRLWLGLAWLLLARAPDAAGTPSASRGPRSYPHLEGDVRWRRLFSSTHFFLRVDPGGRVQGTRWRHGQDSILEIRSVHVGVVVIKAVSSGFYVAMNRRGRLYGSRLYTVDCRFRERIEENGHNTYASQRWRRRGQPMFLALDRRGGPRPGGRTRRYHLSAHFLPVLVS
Ecoli rRNA inh: reduced GFP signal of wild-type E. coli, primary screen, bacterial rRNA inhibitor project, GFP/RFP fluorescence, OD600, single point. GFP signal change (wild-type ribosome), % (test concentration not listed). 350,000 tested, 1.6% active. E. coli WT GFP vs humanized-ribosome RFP mutants, 24 h; active compounds read low; DMSO median 0, no signal -100;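 active = significant combined selectivity score with lowered wild-type GFP, culture density cut under 30%, mutant RFP and density less affected; inactive = any of these conditions unmet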; note: one replicate is shown; some compounds called inactive have numbers as strong as hits
Ecoli rRNA inh OD600: second read-out of Ecoli rRNA inh, no call of its own (marks repeat the call); OD600 change, %; measured here: OD600 growth;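 optical density of the mix in the first replicate; 0 = DMSO median and -100 = no signal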
Ecoli rRNA inh RFP: further read-out of Ecoli rRNA inh, marked with its call; RFP signal change, %; measured here: RFP humanized mutant strains;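 first replicate; 0 = DMSO median and -100 = no signal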
* hit, by the source's call; i = inactive; · = no result given; & = joins results of further samples. A portion of the library; count on the stated rates, not on these rows.

SMILES,UCH37 DUB inh,ALR inh,E coli growth,B2AR ag,HNF4A DNA FP,FGF22 binding,Ecoli rRNA inh,Ecoli rRNA inh OD600,Ecoli rRNA inh RFP
N#Cc1cnc(Nc2nc3ccccc3o2)nc1-c1ccccc1,1.1,-4.2,0.708,-27.4,-1.5,·,·,·,·
OCC[C@@H]1C[C@H](O)[C@@H](O)[C@]2(OCCc3ccccc32)O1,0.8,7.2,·,-2.6,-0.8,i,6.9,8.2,4.2
COc1ccccc1N=Cc1c(C)c(C#N)c2[nH]c3ccccc3n2c1=O,3.0,-7.0,0.738,17.7,-8.4,·,19.6,21.0,2.0
CCn1c(=O)c(C(=O)Nc2ccccc2F)c(O)c2ccccc21,-42.0,-11.1,0.692,-3.6,1.2,i,10.5,11.2,1.1
CC(=O)Nc1cccc(-c2ccnc3c2CC(C(=O)Nc2cccc(N(C)C)c2)O3)c1 (stereo unspecified),·,·,·,·,-2.0,i,2.3,10.2,5.7
CCCn1c(-c2ccc(OC)cc2)nc2nc3ccccc3nc21,-221.1,-2.4,0.719,-3.6,3.4,·,·,·,·
COc1ccc2c(c1)CC(C1(O)C(=O)Nc3ccccc31)C2=O (stereo unspecified),-0.8,-9.0,0.648,4.4,0.1,·,·,·,·
C=C(C)C(=O)N1CC2(CC(c3cccc(NC(=O)COc4ccc(Cl)cc4)c3)=NO2)C[C@@H]1C(N)=O (stereo partly specified),-3.7,-1.5,·,-1.3,3.2,i,-8.5,-9.1,2.0
CCOc1ccc(C(=O)Cc2cc3cccc(OC)c3oc2=O)cc1,4.4,1.2,0.693,-2.8,2.0,i,2.3,-4.5,0.5
O=C(Nc1ccc(N2CCOCC2)cc1)C1CCCCN1S(=O)(=O)c1ccccc1 (stereo unspecified),2.1,70.8,0.719,2.0,-0.9,i,1.3,2.7,-2.3
CC(=O)c1c(COC(=O)c2cccnc2)nc2ccccc2[n+]1[O-],2.2,·,0.759,-0.3,0.5,·,·,·,·
O=C(Nc1ccccn1)NC12CC3CC(CC(C3)C1)C2,1.1,-4.0,0.79,-4.5,-0.7,·,·,·,·
Brc1ccc(-c2nn3c(Cc4ccccc4)nnc3s2)o1,1.2,0.2,0.694,0.9,0.1,·,-1.4,3.7,-2.4
O=C(N/C(=C\c1ccc(Br)cc1)C(=O)N1CCCC1)c1cccs1,6.4,-0.4,0.678,4.2,-0.8,i,-19.8,-31.2,-4.6
COC(=O)CSC(C(=O)Nc1ccc(C)c(C)c1)c1ccccc1 (stereo unspecified),4.7,·,0.653,5.0,-1.6,·,·,·,·

The final three compounds of the part before come first, to join the parts.
SMILES,UCH37 DUB inh,ALR inh,E coli growth,B2AR ag,HNF4A DNA FP,FGF22 binding,Ecoli rRNA inh,Ecoli rRNA inh OD600,Ecoli rRNA inh RFP
Brc1ccc(-c2nn3c(Cc4ccccc4)nnc3s2)o1,1.2,0.2,0.694,0.9,0.1,·,-1.4,3.7,-2.4
O=C(N/C(=C\c1ccc(Br)cc1)C(=O)N1CCCC1)c1cccs1,6.4,-0.4,0.678,4.2,-0.8,i,-19.8,-31.2,-4.6
COC(=O)CSC(C(=O)Nc1ccc(C)c(C)c1)c1ccccc1 (stereo unspecified),4.7,·,0.653,5.0,-1.6,·,·,·,·
CCOc1ccccc1CN1CCNC(=O)C1CC(=O)NC1CCCCCCC1 (stereo unspecified),1.0,·,0.644,7.8,2.4,i,-11.2,-9.6,3.0
O=C(Nc1ccc(N2CCN(C(=O)c3ccc(Cl)cc3)CC2)cc1)c1ccc2c(c1)OCCO2,-1.8,-6.0,0.711,4.0,1.6,·,·,·,·
Oc1ccccc1C1=NCCNC(C(F)(F)F)=C1,10.1,26.6,0.671,4.3,-1.6,i,4.8,5.3,-0.5
N#Cc1c(N)oc(-c2ccc3c(c2)OCO3)c1-c1ccc2c(c1)OCO2,·,6.3,·,9.9,9.1,·,·,·,·
COC(=O)C1CCN(CC(=O)Nc2ccc(OC)c(Cl)c2)CC1,3.5,-6.3,0.632,4.0,0.5,i,15.7,-2.8,-2.2
CN(C)CCN(C)C1CN(CCc2ccccc2)S(=O)(=O)C1 (stereo unspecified),·,·,·,·,1.9,i,1.6,-4.5,-1.7
CN(CC(=O)Nc1ccc(F)cc1)C(=O)COc1ncnc2ccccc12,-0.8,-4.2,0.718,-2.5,8.3,i,7.0,3.1,3.1
Cc1ccc(C(=O)CC2(O)C(=O)N(C)c3ccccc32)s1 (stereo unspecified),4.9,·,0.712,0.9,2.4,i,8.8,14.8,2.2
COc1cc(CN2CCCN(C)CC2)c([N+](=O)[O-])cc1OC,6.9,-49.8,0.723,-1.0,3.3,i,15.7,7.0,2.6
COc1ccc(N2CCN(C3=CC(=O)N(c4cccc(Cl)c4)C3=O)CC2)cc1,3.8,27.9,0.732,0.2,1.0,i,-13.5,-1.8,1.4
C[C@H]1CCC(=O)N([C@H](CSc2ccccc2)Cc2ccccc2)CC1,0.1,-5.5,·,-2.4,-4.9,i,-32.9,-72.0,-10.2
Cc1cc(CNC(=O)Nc2ccc3c(c2)OCO3)nn1C,2.2,-1.8,0.636,15.4,-1.7,·,2.2,3.5,0.5
Cc1ccsc1C1NC(=O)c2ccccc2N1 (stereo unspecified),-69.4,-6.6,0.728,-11.5,0.1,·,·,·,·
COc1ccc(-c2cc(=O)oc3cc(OC(=O)C4CCCCC4)ccc23)cc1,-1.6,-15.7,0.689,2.9,-1.5,i,5.0,-8.4,-1.0
CN(C)S(=O)(=O)c1ccc(S(=O)(=O)N2CCN(CCC#N)CC2)cc1,2.2,-25.9,0.723,8.5,7.4,i,8.5,22.9,-3.3
COc1cc(CCC(=O)OCC(=O)Nc2ccc(C(N)=O)cc2)cc(OC)c1OC,2.4,-2.1,0.692,0.0,-1.3,i,3.2,-0.6,3.0
c1ccc(-c2cc(-c3nc(-c4ccccn4)no3)c3ccccc3n2)cc1,-5.2,-7.1,0.719,2.2,1.6,·,·,·,·
CC(C)C(NC(=O)OC(C)(C)C)C(=O)N1CCCC1C(=O)NC(Cc1ccccc1)C(N)=O (stereo unspecified),1.3,-6.7,0.651,-2.4,-1.6,·,·,·,·
COc1ccc(OC)c(/C=N/NC(=O)c2cc3c(OC)cc(OC)cc3[nH]2)c1,·,-4.8,·,14.0,0.3,i,-25.2,-10.8,13.5
CCCCC(=O)NNC(=O)c1c(O)c2ccccc2[nH]c1=O,-0.4,·,0.69,-3.5,-1.1,i,6.5,1.2,-0.4
CC(=O)Nc1ccc(/C=N/N2C(=O)NC(C)(c3ccc(OC(F)F)cc3)C2=O)cc1 (stereo unspecified),·,·,·,6.5,1.5,i,14.8,4.7,2.8
Cc1onc(-c2ccccc2)c1C(=O)N1CCN(c2ccccc2)CC1,1.7,24.2,0.691,-1.7,-1.8,i,4.1,2.1,2.4
Cc1sc(NC(=O)C2=COCCO2)nc1-c1ccc(F)cc1,0.3,·,0.562,1.8,-0.3,·,5.6,2.4,-0.1
O=S(=O)(NCCc1ccccc1)c1ccc(Br)s1,·,-4.2,·,-2.7,-0.5,i,-1.4,0.1,-0.3
COc1ccc(-n2nnc3c(SCC(=O)Nc4ccccc4F)ncnc32)cc1,-9.5,11.9,0.719,2.7,1.4,i,8.3,2.2,0.5
Cc1cc(OC(C)C(=O)N2CCN(c3ccccc3)CC2)c2c(C)c(C)c(=O)oc2c1 (stereo unspecified),-15.3,3.7,0.689,-3.9,2.7,i,5.4,2.4,-4.0
COc1ccc(CN2CCOCCOCCOCC2)cc1,0.7,-12.3,0.66,-5.8,-0.6,i,8.1,12.7,1.7
Cc1cccc(OCC(=O)OCC(=O)N(CC(C)C)c2c(N)n(Cc3ccccc3)c(=O)[nH]c2=O)c1C,2.9,0.4,0.66,9.7,1.2,i,3.0,-0.8,0.2
CCOc1ccc(Cl)cc1-c1cc(C(=O)Nc2ccc(OC)nc2)[nH]n1,·,·,·,·,-4.5,i,-12.6,3.5,6.5
CC(C)(C)NC(=O)C(c1ccccc1)n1c(=O)c(-c2cc3ccccc3[nH]2)nc2ccccc21 (stereo unspecified),·,·,·,·,2.6,i,15.5,9.7,4.3
C[C@H](CO)N1C[C@H](C)[C@@H](CN(C)C(=O)Nc2ccc(C(F)(F)F)cc2)Oc2ccc(NC(=O)Cc3ccccc3)cc2C1=O,4.2,4.4,·,-2.0,-1.1,i,8.6&-3.8,7.8&2.5,-2.3&-1.4
O=C(CN(c1ccc(Cl)c(Cl)c1)S(=O)(=O)c1ccccc1)N1CCc2ccccc2C1,4.5,-3.6,0.77,4.3,-0.4,·,·,·,·
C=CC[C@H](CC(=O)N(CCO)Cc1ccccc1)C(=O)N[C@H](COC(=O)[C@@H](CC=C)CC(=O)OC(C)(C)C)c1ccccc1,-5.7,-2.8,·,-1.0,10.9,i,6.3,0.6,-2.5
CCCCN(C(=O)c1ccc(S(=O)(=O)N2CCCCC2)cc1)C1CCS(=O)(=O)C1 (stereo unspecified),2.9,·,0.591,-3.1,2.8,i,-1.1,9.5,-0.4
CCOC(=O)c1ccccc1NC(=O)CSc1nccn1C,-0.6,28.9,0.743,0.3,1.9,·,·,·,·
COc1cccc(C(=O)CN(C(=O)c2ccc(Cl)cc2Cl)N2C(=O)c3ccccc3C2=O)c1,3.2,·,0.673,-1.7,3.4,·,·,·,·
N#Cc1ccccc1OCC(=O)OCC(=O)Nc1ccc2c(c1)OCO2,-0.2,-23.8,0.665,-7.7,-2.9,i,1.6,6.3,-2.7
CN(C)c1ccnc(Nc2ccccc2)c1C#N,4.5,0.2,0.707,4.5,5.7,i,20.9,8.2,-0.3
C[C@@H]1CN([C@@H](C)CO)C(=O)CCCn2nncc2CO[C@@H]1CN(C)C(=O)Nc1cccc(C(F)(F)F)c1,·,·,·,·,1.5,i,-10.7&-17.5,-1.3&-13.2,1.3&2.7
Cc1onc(-c2ccccc2)c1C(=O)N1CCN(S(=O)(=O)c2ccc(Cl)cc2)CC1,6.2,0.0,0.654,-7.9,-0.9,i,0.0,6.3,7.8
O=C(NCCCN1CCOCC1)C1Cc2c(ccc3ccccc23)O1 (stereo unspecified),2.3,·,0.64,-3.0,-0.7,i,14.7,5.5,-1.2
Cc1cccc(NC(=O)CSc2ccc(-c3cccnc3)nn2)c1,-2.2,4.2,0.68,-7.1,1.7,i,2.5,-0.1,0.1
COc1ccc(C(=O)/C=C/c2ccsc2)cc1CSCC(=O)O,8.5,98.8*,0.72,7.7,-2.6,i,-7.6,-21.5,-0.8
CCOc1ccc(NC(=O)c2cc3cc4ccc(C)cc4nc3o2)cc1,-26.0,-24.7,0.75,·,·,·,·,·,·
